# KCNQ2 enhance = potentiators of rat KCNQ2 potassium channel; Potassium voltage-gated channel subfamily KQT member 2 (Rattus norvegicus), O88943; 310,000 compounds, 0.54% hits; B-score at 10 µM; AID 2239, 2010; CHO-K1 KCNQ2, FluxOR thallium flux fluorescence; hits give high values;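 active = fluorescence ratio B-score at least 3 SD of library B-scores, with initial fluorescence B-score within 3 SD, cut at about 5.3 in these data; same plate scores as AID 2156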;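 note: B-score of peak minus minimum over baseline fluorescence ratio after K+ and Tl+ stimulus; positive B-score means potentiation of KCNQ2 with more thallium influx and brighter signal; only the inactives scoring about 0 or higher are listed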
# Target sequence (O88943 whole entry, looked up): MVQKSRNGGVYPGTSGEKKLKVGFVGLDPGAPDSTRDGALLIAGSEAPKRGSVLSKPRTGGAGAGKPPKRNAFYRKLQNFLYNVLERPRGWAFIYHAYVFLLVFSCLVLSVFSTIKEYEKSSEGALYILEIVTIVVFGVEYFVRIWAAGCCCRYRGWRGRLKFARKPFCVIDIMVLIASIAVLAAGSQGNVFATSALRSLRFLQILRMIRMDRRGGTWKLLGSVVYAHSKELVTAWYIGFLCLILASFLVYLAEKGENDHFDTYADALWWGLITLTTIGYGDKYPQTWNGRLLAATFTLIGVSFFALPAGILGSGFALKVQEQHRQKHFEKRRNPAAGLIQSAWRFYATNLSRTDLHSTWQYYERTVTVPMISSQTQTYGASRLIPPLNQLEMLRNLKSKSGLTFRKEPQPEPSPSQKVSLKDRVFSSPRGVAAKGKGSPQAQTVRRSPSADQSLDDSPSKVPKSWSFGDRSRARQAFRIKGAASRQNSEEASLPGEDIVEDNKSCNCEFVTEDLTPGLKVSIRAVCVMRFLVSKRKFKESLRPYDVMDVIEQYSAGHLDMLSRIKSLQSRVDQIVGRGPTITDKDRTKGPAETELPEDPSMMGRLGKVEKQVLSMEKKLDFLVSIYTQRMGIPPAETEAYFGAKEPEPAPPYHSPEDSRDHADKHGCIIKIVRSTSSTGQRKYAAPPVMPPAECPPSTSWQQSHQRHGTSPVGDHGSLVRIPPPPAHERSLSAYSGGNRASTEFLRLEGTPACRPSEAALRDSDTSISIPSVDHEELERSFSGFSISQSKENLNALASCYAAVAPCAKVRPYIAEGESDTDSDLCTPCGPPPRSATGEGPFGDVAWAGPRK
# KCNQ2 enhance baseline = recorded beside KCNQ2 enhance, whose call it bears; B-score; compound at 10 µM; measured here: initial fluorescence intensity artifact check;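 brightness before thallium and not channel activity; 0 = typical well and far values either way flag optical interference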
# Numbers without * were called inactive. Only part of the results is shown; rates above refer to the full screens.
SMILES	KCNQ2 enhance	KCNQ2 enhance baseline
COc1ccc(NC(=O)CN(C)S(=O)(=O)c2ccccc2)c([N+](=O)[O-])c1	1.3	-0.91
COc1nn(CC(=O)N2N=C(C)CC2(O)C(F)F)cc1[N+](=O)[O-] (stereo not given)	1.4	-1.1
COc1cc(Cl)c(C)cc1NC(=O)c1ccc(S(C)(=O)=O)cc1	0.35	-1.7
O=C(NNC(=S)Nc1ccccc1)c1cccc(Br)c1	0.98	-0.05
Cc1ccc(-c2nnn(CC(=O)N(CC3CCCO3)C(C(=O)NC3CCCC3)c3ccc(O)cc3)n2)o1 (stereo not given)	0.73	-2
O=C(c1ccc2c(=O)n3c(nc2c1)CCCCC3)N1CCCCC1	0.58	-0.04
COC(=O)c1c(NC(=O)COC(=O)CNC(=O)C2CCCCC2)sc(C)c1C	1	3.9
CC(CC(=O)Nc1nccs1)c1ccccc1 (stereo not given)	0.71	-1.2
Cc1cc(C)cc(NC(=S)NC2CC3CCC(C2)N3Cc2ccco2)c1 (stereo not given)	0.52	-0.07
O=C(Nc1nnc(CCS(=O)(=O)c2ccc3ccccc3c2)s1)c1cccs1	0.03	0.55
CC1=CC(C)(C)NC(=S)N1C(C)c1ccccc1 (stereo not given)	0.08	0.38
Cn1c(N/N=C\c2cccc(O)c2)cc(=O)n(C)c1=O	2.1	1.1
C(=C\c1ccccc1)/C=N/Nc1nc(N2CCOCC2)nc(N2CCOCC2)n1	0.63	-0.72
CCCCc1cc(=O)oc2c(C)c(OCC(=O)N3CCC(C(N)=O)CC3)ccc12	1.1	-0.03
Cc1n[nH]c(=S)n1/N=C/c1ccccc1OCc1ccc(Cl)cc1	1.9	-0.16
CS(=O)(=O)N(CC(=O)Nc1ccc(F)cc1F)c1cccc([N+](=O)[O-])c1	2.7	0.61
O=C1C=C(N2CCCCCC2)C2(CCCCC2)O1	0.51	-0.02
Cc1ccc(C)c2c1cc(C)c1nnc(SCC(=O)Nc3nc4c(s3)CCCC4)n12	0.28	0.4
Cc1nc(NC(=O)CSc2nnc(N)s2)c(Cl)cc1Cl	0.3	1.4
Cc1cc(C)n2nc(C(=O)OCC(=O)N(C)C3CCCCC3)nc2n1	0.18	0.07
CC1(C(=O)O)CCC(C(=O)N2CCOCC2)C1(C)C (stereo not given)	0.89	0.87
CC(C)N1C(=O)N(c2ccccc2)C(C)(O)CC1(C)C (stereo not given)	0.53	0.6
NS(=O)(=O)c1ccc(NC(=O)COC(=O)c2cc([N+](=O)[O-])ccc2Cl)cc1	0.48	-1.1
COc1cccc(N2CC(C(=O)N3CCC4(CC3)CC(=O)c3ccccc3O4)CC2=O)c1 (stereo not given)	0.03	-0.49
COc1cc(/C=C2\C(=N)N3N=C(S(C)(=O)=O)SC3=NC2=O)cc(OC)c1OCCOc1ccccc1C	3.2	-0.7
CCOc1ncccc1C(=O)N1CCN(S(=O)(=O)c2ccc(Br)cc2Cl)CC1	0.63	0.15
COCCOC(=O)c1c(C)n(C)c2ccc(OC(=O)N3CCOCC3)cc12	0.1	0.77
Cc1ccc(C(O)CN2C3=NCCCN3c3ccccc32)cc1 (stereo not given)	0.24	1.1
CCNC(=O)CSC1=N/C(=C\c2ccc(O)c(OCC)c2)C(=O)N1c1ccc(OC(F)F)cc1	0.15	-0.67
COc1cc(C(C)=O)ccc1OCC(=O)N1CCc2ccccc2C1	2.4	1.1
CCc1ccccc1S(=O)(=O)Cc1ccc(C(=O)NCC2CCCO2)o1 (stereo not given)	1.2	-1.7
COc1cccc(/C=N/c2sc(Cc3ccccc3)c(C)c2C(N)=O)c1O	2.1	0.02
COC(=O)c1cnc2c(c(C)nn2C)c1OC	1	-2.2
O=[N+]([O-])c1cc(Cl)c(O)c2ncccc12	5.7*	-1*
C=CCn1c(C)cc(C(=O)COC(=O)c2ccc3c(c2)NC(=O)CS3)c1C	1.4	0.68
CSc1nnc(C)c(=O)n1COC(=O)c1ccc(S(=O)(=O)N(C)C)cc1	1.2	-1.1
Cc1cc(C)nc(NS(=O)(=O)c2ccc(NC(=O)c3ccc(S(=O)(=O)N4CCOCC4)cc3)cc2)n1	0.01	0.12
COc1ccc(C(=O)/C=C\N2CCOCC2)cc1	0.5	1.6
O=C(CSc1nnc(-c2ccco2)o1)c1ccccc1	0.01	0.92
O=C(Nc1ccc(-c2ccccc2)cc1)c1ccco1	0.01	-1.3
Cc1ccc2cc(COC(=O)c3ccncc3)c(=O)[nH]c2c1	0.03	-1.3
Cc1nc(SCC(=O)Nc2nc3ccccc3s2)c(C#N)c(C)c1C	0.17	-0.07
O=C(NCc1cccnc1)c1ccc(-c2ccccc2[N+](=O)[O-])o1	1	-3.2
COc1ccc(C2C3=C(CC(C)(C)CC3=O)N(CC(=O)O)C3=C2C(=O)CC(C)(C)C3)cc1OC	0.71	-1.5
O=C(NC1CCCCCCC1)c1ccc(Br)o1	3.6	1.4
COc1ccc(Cl)cc1NC(=O)CN1CCN(S(=O)(=O)N2CCCCC2)CC1	0.7	0.22
CCCc1nc(NC(=O)c2ccccc2)nc(NC(=O)c2ccccc2)n1	0.65	-0.04
CCCCNS(=O)(=O)c1ccc2nc(-c3cccnc3)cc(C(=O)NC(C)C)c2c1	2.3	-0.01
CCCCNCCCCOc1ccccc1	0.12	-0.24
S=c1[nH]cnc2scc(-c3ccc(Br)cc3)c12	5.6*	0.56*

# Compound profiles (already shown). Order of screens: KCNQ2 enhance	KCNQ2 enhance baseline
# COc1cc(C(C)=O)ccc1OCC(=O)N1CCc2ccccc2C1 is entered as 2.4	1.1
# Cc1nc(SCC(=O)Nc2nc3ccccc3s2)c(C#N)c(C)c1C is entered as 0.17	-0.07
# COc1cccc(/C=N/c2sc(Cc3ccccc3)c(C)c2C(N)=O)c1O is entered as 2.1	0.02

# (more compounds)
SMILES	KCNQ2 enhance	KCNQ2 enhance baseline
CCN(CC)S(=O)(=O)c1cccc(-c2n[nH]c(=S)n2/N=C/c2ccc(OC)cc2)c1	1	-2.3
CCC(=O)NCCc1nc2cc(NC(=O)c3cccc([N+](=O)[O-])c3)ccc2n1C	0.49	-0.65
Oc1cccc(CN2CCCCC2)c1	1	-1.9
O=C(CN1CCN(C2CCCCC2)CC1)c1ccc2cc[nH]c2c1	0.59	0.28
CN1CCN(c2ccccc2NC(=O)c2ccc(-c3cccc([N+](=O)[O-])c3)o2)CC1	0.98	-0.61
Cc1cccc(NC(=O)CCn2c(=O)oc3ccccc32)c1	0.54	-0.04
COC(=O)C(Cc1ccc(O)cc1)NC(=O)C(CC(=O)OC(C)(C)C)NC(=O)OC(C)(C)C (stereo not given)	0.65	-0.89
O=c1oc(-c2ccco2)nc2c1cnn2-c1ccccc1	0.75	-0.61
CC(=O)NC1CCC(C(=O)O)(c2ccccc2)C1 (stereo not given)	0.51	-0.14
COC(=O)/C=C/c1ccc2c(c1)OCO2	1.8	-3.4
Nc1nc(-c2ccccc2)nc(-c2ccccc2O)n1	1.7	0.15
C/C(=N\NC(=O)c1ccc(F)cc1)c1cccc(NC(=O)c2cccc(F)c2)c1	0.04	-0.76
COC(=O)C(CCSC)NC(=O)C(NC(=O)C1CCC(C)CC1)C(C)C (stereo not given)	0.2	-0.19
COCCOC(=O)c1[nH]c2c(c1C)C(=O)CC(c1ccc(N(C)C)cc1)C2 (stereo not given)	0.7	0.03
COc1cc(NC(=O)COc2c(C)cc(C)cc2[N+](=O)[O-])c(OC)cc1Cl	0.01	1.3
O=C(COC(=O)C1CCC1)Nc1ccc(Oc2ccccc2)cc1	0.16	1.3
COc1ccccc1OCC(O)CO (stereo not given)	0.06	-0.52
Cc1nnc(SCC(=O)NC2CC2)n1CCc1ccccc1	0.15	-1.6
C/C(=N\NC(=O)CSCc1ccccc1Cl)c1cc(O)ccc1O	0.47	-0.67
Cn1c(CNC(=O)CCNC(=O)c2cccc(Cl)c2)cc(=O)n(C)c1=O	1.2	-0.31
COCCN1CCN(C(=O)C2CCC(=O)N(CCc3cccc(F)c3)C2)CC1 (stereo not given)	0.91	1.1
CC(C)OCC(O)CN1CCN(CC(O)COc2ccc3c(c2)OCO3)CC1 (stereo not given)	0.16	0.31
O=C(CSc1nc(N2CCCCC2)nc(N2CCCCC2)n1)N1CCc2ccccc21	14*	-0.01*
COc1cc(OC)cc(-n2nnnc2SCC(=O)Nc2nc3c(s2)CCCC3)c1	0.59	0.03
C=CCn1c(C)cc(C(=O)CSc2n[nH]c(N)n2)c1C	1	0.44
O=c1c2c([nH]c3ccccc13)CCC2	0.65	-0.63
CC1(C)CC(=O)C/C(=N\NC(=O)Cc2ccccc2)C1	0.02	-1.9
CCOC(=O)c1cnc(SCc2nc(N)nc(Nc3ccc(C)cc3)n2)nc1N	1.6	-2.5
CCOC(=O)c1cc2sccc2n1CC(=O)N1CCc2ccccc21	0.04	-0.99
O=C(Cn1nc(-c2ccccc2)c2ccccc2c1=O)NCC1CCCO1 (stereo not given)	0.16	-0.71
COc1ccc2nc(NC(=O)CSc3nccc(C)n3)sc2c1	0.24	-2.6
Cc1ccccc1NC(=O)CSc1nc2c(c(=O)n(C)c(=O)n2C)n1C	1.1	-0.02
CCOC(=O)N1CCN(C(=O)c2ccc3nc(SCc4ccc(F)cc4)n(C)c3c2)CC1	3.2	-0.71
CC(=O)N1CCN(c2ccc(NCc3ccc(C)cc3)cc2)CC1	0.72	-1.2
CCOc1ccc(N2C(=O)CC(N3CCN(c4ccc(Cl)cc4)CC3)C2=O)cc1 (stereo not given)	0.36	-0.55
COc1cc(CCC(=O)NNC(=O)c2cccc(Cl)c2)cc(OC)c1OC	1.2	0.83
Cc1ccc(O)c(C(=O)c2cnn(-c3ccc(S(=O)(=O)N4CCOCC4)cc3[N+](=O)[O-])c2)c1	0.71	-1.4
O=C(CCN1C(=O)/C(=C/c2ccccc2Cl)SC1=S)NCCCN1CCOCC1	0.02	-0.62
Cc1cccc(OCc2ccc(C(=O)N3CCOCC3)o2)c1	0.08	0.04
Cn1nc(C(=O)N2CCN(c3ccccn3)CC2)c2ccccc2c1=O	1	0.05
Nc1nnc(SCc2ccc3c(c2)OCO3)s1	0.36	-0.43
COc1ccc(C(=O)Nc2cccc(-c3ccc4nncn4n3)c2)cc1OC	0.74	-0.83
Cc1cc(C(=O)COC(=O)c2cccs2)c(C)n1-c1c(C)n(C)n(-c2ccccc2)c1=O	0.99	-1.6
C=CCOc1ccc(CNn2cn[nH]c2=S)cc1	0.06	1.9
CC1=C(C(N)=O)C(c2cccnc2)n2nc(-c3cccc(C)c3)nc2N1 (stereo not given)	0.05	0.74
CCCN1CCC(=NNc2ccc(C(=O)O)cc2)CC1	1.5	-1
Cc1ccc(C(=O)n2c(-c3ccccc3)cnc2SCC(=O)Nc2ccccc2)cc1	0.5	1.9
O=C(Nc1ccc2ccccc2c1)c1ccc(Cl)cc1	0.67	0.01
CCc1cc2c(N=Nc3c(O)[nH]c4ccccc34)ncnc2s1	0.45	-2.2
Cc1ccc(S(=O)(=O)N(C)C)cc1-n1c(SCC(=O)Nc2ccccc2)nc2ccccc2c1=O	0.55	0.82

# Other records
SMILES	KCNQ2 enhance	KCNQ2 enhance baseline
O=C(Nc1ccccc1N1CCCCC1)c1ccc(-c2cc(Cl)ccc2Cl)o1	1.1	0.13
CC1CN(c2ccc(Cl)nn2)CC(C)O1 (stereo not given)	1.2	-0.59
O=C(c1ccccc1)C(C(=O)N1CCCCC1)n1ccccc1=O (stereo not given)	1.5	-0.49
Cn1nc(C(F)(F)F)cc1C(=O)Nc1ccc(-c2ccno2)cc1	2	1.8
COc1ccc(OCC(=O)NC(=S)Nc2ccc(N3CCOCC3)c(Cl)c2)cc1	3.5	-1.4
COc1ccccc1NC(=S)Nc1ccccn1	1.1	-0.5
O=C1c2oc3ccccc3c(=O)c2C(c2cccs2)N1CCCN1CCOCC1 (stereo not given)	1.7	-1.7
CCOc1ccc(N(CC(=O)NC2CCCCC2)C(=O)CCC(=O)Nc2ccccn2)cc1	1.5	-0.54
Cc1ccc(C(C)C)c(OCCCCCN2CCOCC2)c1	1.3	0.12
O=C(CCCN1C(=O)c2ccccc2C1=O)Nc1nncs1	1.5	0.45
Cc1onc(-c2ccccc2)c1C(=O)N=C(N)c1ccc(Cl)cc1	0.65	-0.17
O=C(Nc1cccc(-c2cn3cccnc3n2)c1)Nc1ccccc1F	0.16	-0.19
COc1ccc(CCNC(=O)c2cc(C3CC3)on2)cc1OC	0.48	1.1
CC(=O)Nc1ccc(Nc2nnc(-c3ccc(O)cc3)c3ccccc23)cc1	1.5	0.04
COc1c(C)cc(Br)cc1C(=O)NC(=S)Nc1ccc(Cl)c(C(=O)O)c1	0.96	-1.8
COc1ccc(C(=O)CC(=O)C(=O)Nc2cccc([N+](=O)[O-])c2C)cc1	0.46	-1.9
Cc1ccnc2nc(C(=O)NC3=NCCS3)nn12	0.15	-0.14
Cc1ccc(-n2nc3c(c2NC(=O)C2CCCC2)CS(=O)(=O)C3)cc1	1.4	-2.6
CC(C)S(=O)(=O)c1csc(NC(=O)Nc2ccc(Cl)cc2)c1Cl	0.6	0.61
CCOc1ccc(C(=O)OCC(=O)NCc2ccco2)cc1OCC	0.1	-0.45

# Source: PubChem
